MARV entry inh = inhibitors of Marburg virus binding or cell entry | Potency, µM (doses to about 37.8 µM), for the others: top-dose activity change, negative = inhibition, actives largely listed as inhibitors | hit rate 1.8% among 300,000 | Marburg virus pseudotyped entry inhibition, cell reporter; control for the full effect not named in the record; about a third of the inactives were read at about 46 µM; active = well fitted inhibition curve with a large enough effect; inconclusive = small, poorly fitted or top-dose-only effect, or effect the other way; inactive = flat fitted curve, though single readings scatter; tested in HEK293 cells; about a fifth of its hits are not listed in these tables; also: % is scaled to controls: 0 for no effect and ±100 for the full control effect; luciferase read-out
LASV entry inh = inhibitors of Lassa virus binding or cell entry; Lassa virus pseudotype entry inhibition, cell reporter; control for the full effect not named in the record; hit rate 1.2% among 300,000; AID 540256; Potency, µM (highest dose often 37.9 µM), inactives show at the highest dose activity change, negative = inhibition, hits mostly inhibitors; active means well fitted inhibition curve with a large enough effect; inconclusive means small, poorly fitted or top-dose-only effect, or effect the other way; inactive means flat fitted curve, though single readings scatter; tested in HEK293 cells; also: % is scaled to controls: 0 for no effect and ±100 for the full control effect; nearly all actives have a fitted effect of over 50% in size; luciferase read-out
2A StopGo = FMDV 2A StopGo reporter, luciferase signal; AID 1159524; hit rate 1.2% among 410,000; human cells with a luciferase reporter of 2A StopGo recoding; control for the full effect not named in the record; Potency, µM (highest dose often 57.9 µM), inactives show top-dose signal change, negative = less light; active = well fitted falling curve with a large enough effect; inconclusive = small, poorly fitted or top-dose-only effect; inactive = no such curve, though single readings can be large or run the other way; tested in HEK293T cells; also: % is scaled to controls: 0 for no effect and ±100 for the full control effect; nearly all actives have a fitted effect of over 45% in size; luciferase light after 4 h
Cruzain Triton = inhibitors of Trypanosoma cruzi cruzain with detergent; purified cruzain, Z-FR-AMC fluorescence, 0.01% Triton; Potency, µM, for inactives: max response, negative = inhibition, actives largely listed as inhibitors; hit rate 0.43% among 200,000; AID 1478; active = well fitted curve in the direction sought with a large enough effect; inconclusive = small, poorly fitted or top-dose-only effect, or another doubt; inactive = no such curve, though single readings can be large; an effect the other way counts as inactive or inconclusive;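 also: plate controls were neutral wells for no effect and buffer without enzyme for full effect; nearly all actives have a fitted effect of over 40% in size; top concentration of the series not given in the record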
Target sequence (P25779 123-467 limits assumed): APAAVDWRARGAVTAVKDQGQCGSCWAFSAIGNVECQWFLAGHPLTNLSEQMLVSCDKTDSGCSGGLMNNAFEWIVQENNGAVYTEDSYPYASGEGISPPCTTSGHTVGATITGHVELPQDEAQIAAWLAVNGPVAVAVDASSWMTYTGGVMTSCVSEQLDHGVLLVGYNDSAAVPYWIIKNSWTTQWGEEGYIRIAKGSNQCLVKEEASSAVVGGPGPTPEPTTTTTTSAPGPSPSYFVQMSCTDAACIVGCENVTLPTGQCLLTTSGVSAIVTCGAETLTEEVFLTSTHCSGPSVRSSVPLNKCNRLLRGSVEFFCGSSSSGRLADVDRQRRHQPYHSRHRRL
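Z-FR-AMC hydrolysis (2 uM substrate) by cruzain (1.5 nM) monitored kinetically at ex 360/em 450 nm after 15 min room-temperature compound exposure; 0.01% Triton X-100, pH 5.5, 5 mM DTT.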
SARS PLpro yeast = blocks SARS-CoV papain-like protease in a yeast assay; S. cerevisiae expressing SARS-CoV PLpro, growth rescue; control for the full effect not named in the record; hit rate 0.19% among 330,000; AID 485353; Potency, µM (highest dose often 32.9 µM), without a hit: at the highest dose activity, positive = growth rescue; also: 0% is about no effect; nearly all actives have a fitted effect of over 55% in size; growth read by luminescence after 48 h
NS1 inh = influenza NS1 inhibition | hit rate 0.4% among 270,000 | S. cerevisiae slowed by influenza A NS1, growth recovery by OD600 | Potency, µM (series often up to 46.1 µM), for the others: at the highest dose activity, positive = more growth; also: actives are rising curves; nearly all actives have a fitted effect of over 50% in size
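S. cerevisiae expressing influenza A NS1, grown in glucose, washed, then diluted 1:100 into pH 6.0 -URA galactose medium with 23 nl compound. Growth recovery read as OD600; NS1-free strain serves as control.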
Cruzain inh noDet = inhibitors of Trypanosoma cruzi cruzain without detergent; P25779; purified cruzain, Z-FR-AMC fluorescence, no detergent; Potency, µM, inactives show max response, negative = inhibition, most hits filed as inhibitors; hit rate 2.3% among 200,000; active = well fitted curve in the direction sought with a large enough effect; inconclusive = small, poorly fitted or top-dose-only effect, or another doubt; inactive = no such curve, though single readings can be large; an effect the other way counts as inactive or inconclusive;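 also: plate controls were enzyme without inhibitor for no effect and buffer without enzyme for full effect; nearly all actives have a fitted effect of over 40% in size; top concentration of the series not given in the record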
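Detergent-free condition (0.00005% Triton X-100) in acetate buffer pH 5.5 with DTT. 1.5 nM enzyme and compound were pre-mixed 15 min, then 2 uM Z-FR-AMC substrate added; reaction progress from fluorescence change between first and third reads (60 s).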
RE007 growth inh = less growth of the S. pombe RE007 Vpr strain. S. pombe RE007 Vpr strain, BacTiter-Glo ATP luminescence, 24 h; control for the full effect not named in the record. Potency, µM (doses to about 92.2 µM), inactives show at the highest dose activity change, negative = less growth. hit rate 0.21% among 360,000. AID 651644; active = well fitted falling curve with a large enough effect; inconclusive = small, poorly fitted or top-dose-only effect; inactive = no such curve, though single readings can be large or run the other way;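 also: % is scaled to controls: 0 for no effect and ±100 for the full control effect; nearly all actives have a fitted effect of over 50% in size; the assay follows cell death caused by Vpr and the record does not say whether a fall means rescue or toxicity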
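Fission yeast RE007 carrying one integrated HIV-1 vpr copy, seeded at OD 0.01 in PMG+AL medium with 23 nL pinned compound. Grown 24 h at 30 degrees; viability read by BacTiter-Glo luminescence after 5 min.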
Starred values were filed as active, the others as inactive; ? = inconclusive; · = not tested or not shown; & = joins results of further samples; [ ] = dose if it differs, or a comment. Unless noted, calls follow the shape of the dose curve; as a rule, active means well fitted rising curve with a large enough effect; inconclusive means small, poorly fitted or top-dose-only effect; inactive means no such curve, though single readings can be large or run the other way. Potency is read from the fitted curve at half-maximal effect. Random draw from the library; any-hit rate near 4.7%.

SMILES	MARV entry inh	LASV entry inh	2A StopGo	Cruzain Triton	SARS PLpro yeast	NS1 inh	Cruzain inh noDet	RE007 growth inh
CCc1ccc(NC(=S)N2CCN(C)CC2)cc1	11%[46.1 µM]	-2%[46.1 µM]	12%	·	-6%	0%	·	-2%
O=C(CSc1ncnc2c1cnn2-c1ccccc1)NCC1CCCO1 (stereo not drawn)	?	-17%	?	·	-3%	·	·	-2%
COc1cccc(-c2cc(C(=O)N3CCN(S(=O)(=O)c4ccc(Br)cc4)CC3)[nH]n2)c1	0%[46.1 µM]	1%[46.1 µM]	-25%	·	0%	-14%	·	-4%
O=C1OCC(CO)(CO)N=C1NNc1ccccc1[N+](=O)[O-]	·	·	0%	·	-5%	-34%	·	13%
CC(=O)Nc1ccc(NC2CCCCC2NS(=O)(=O)c2ccccc2)cc1 (stereo not drawn)	·	·	·	·	1%	1%	·	-4%
CN(C)c1nc(N)nc(CSc2nnnn2-c2cccc3ccccc23)n1	?	-9%	?	-4.5%	-3%	-23%	-9%	10%
CC1Cc2ccccc2N1C(=O)COC(=O)Cn1cnc2ccccc2c1=O (stereo not drawn)	-2%	-1%	-10%	3.3%	5%	-10%	0%	-9%
COc1ccccc1CC(NC(C)=O)C(=O)NC1CCN(S(=O)(=O)c2ccccc2)CC1 (stereo not drawn)	4%[46.1 µM]	?	-13%	·	4%	-1%	·	-2%
COc1cc2c(cc1OC)C(C)N(C(=O)c1cccc([N+](=O)[O-])c1)CC2 (stereo not drawn)	12%[46.1 µM]	17%	-22%	·	-6%	·	·	13%
O=C(CSc1nc2ccccc2n1CC(=O)N1CCCCC1)N1CCCCC1	-3%[46.1 µM]	-8%	3%	·	2%	2%	·	5%
CC(C)CNC(=O)/C(C#N)=C1\N=C(NC(=O)c2ccco2)c2ccccc21	·	·	-19%	·	-3%	-24%	·	-9%
CCc1ccccc1Nc1cc(C(=O)NCc2ccc(C)cc2)c2ccccc2n1	-25%[46.1 µM]	0%[46.1 µM]	-3%	-8.9%	·	·	?	·
CCC1=C(OC(=O)N(CC)CC)N2C(=O)OC(=NCc3ccccc3)[C@]2(C)[C@H]2C1=CC[C@H]1C(=O)N(CC)C(=O)[C@H]12	·	·	-1%	-1.8%	-2%	-4%	?	22%
CCCCn1c(=O)c(C(=O)Nc2ccccc2C)c(O)c2ccccc21	8%	1%	12%	·	2%	5%	·	0%
CC1(C)Cc2c(sc(NC(=O)C(=O)NCC3CCCO3)c2C(=O)O)CO1 (stereo not drawn)	·	·	-19%	·	?	14%	·	1%
CN1CCC(N(C)C(=O)COc2ccccc2-c2ccccc2)CC1	-29%	-12%	-4%	3.6%	7%	3%	2%	-11%
CCCN1Cc2cccc(C(=O)N3CCN(c4ccc(OC)cc4)CC3)c2C1=O	11%[46.1 µM]	12%	-23%	·	2%	·	·	6%
CC(C)(C)N1C(=O)c2ccc(C(=O)NCc3ccco3)cc2C1=O	-5%	5%	25%	-2.0%	-1%	-13%	0%	-15%
COc1ccc(C(=O)OCC(=O)NC2CCCCCCC2)cc1OC	5%	16%	-19%	·	-8%	·	·	8%
COc1ccc2c(c1)C(C)=CC(C)(C)N2S(=O)(=O)c1ccc(C)cc1	?	?	?	·	-4%	-4%	·	21%
CCOc1ccccc1NC(=O)c1ccccc1-c1nc(-c2ccccc2OC)no1	?	?	-11%	-2.0%	-5%	-50%	9%	12%
CCOC(=O)NC(=O)CSc1cc(C)c2cc(C)cc(C)c2n1	1%[46.1 µM]	-7%[46.1 µM]	-25%	·	-1%	·	·	-12%
COc1ccc(N2CCN(C(=O)c3cc4c(-c5ccccc5F)nn(C)c4s3)CC2)cc1	14%[46.1 µM]	?	-28%	-4.8%	·	·	24%	·
COCCCNc1nc2c(-c3ccc(Cl)cc3)nnn2c2ccccc12	6%	-1%	1%	2.4%	-19%	9%	?	-5%
CC(C)N(Cc1ccccc1)C(=O)CN1C(=O)COc2ccc(S(=O)(=O)N3CCCCCC3)cc21	-21%&-21%[46.1 µM]	-27%&-5%[46.1 µM]	-3%&-10%	-3.6%	0%	10%	?	0%
COc1ccc(S(=O)(=O)N2CCN(C(=S)NC3CCCCC3)CC2)cc1	0%[46.1 µM]	-5%	0%	·	0%	4%	·	3%
O=C1c2ccccc2C(=O)N1Cc1nc2ccccc2c(=O)n1-c1cccnc1	?	9%	-13%	0.3%	0%	8%	-10%	3%
Cc1c(Br)c([N+](=O)[O-])nn1CCCC(=O)N1CCN(c2ccccc2)CC1	13µM*	15%	-13%	-3.4%	0%	-12%	1%	-3%
Cc1cc(C)c2[nH]c(O)c(N=NC3=NC(=O)CS3)c2c1	·	·	-3%	·	3%	1%	·	11%
CC(C(=O)C12CC3CC(CC(C3)C1)C2)N1CCOCC1 (stereo not drawn)	-27%	1%	-14%	·	3%	14%	·	-1%
COc1ccc(CC(=O)N/N=C(\C)CC(=O)Nc2ccc(N(C)C)cc2)cc1	2%[46.1 µM]	-21%[46.1 µM]	-8%	·	-4%	3%	·	-16%
COc1ccc(N(C)C(=O)CCS(=O)(=O)c2cccc3nsnc23)cc1	3%&2%[46.1 µM]	-2%&1%[46.1 µM]	-6%&9%	-4.0%	-2%	-5%	-5%	-8%
CCCCOC(=O)c1c(N)n(-c2ccc(OC)cc2OC)c2nc3ccccc3nc12	6%[46.1 µM]	15%[46.1 µM]	-17%	-0.5%	·	·	-7%	·
Cc1cccc(Cn2ccc(NC(=O)c3ccc4c(c3)OCO4)n2)c1	?	13%	4%	·	1%	·	·	27%
COc1ccc([N+](=O)[O-])cc1NC(=O)CSCc1cc(C)cc(C)c1	?	1%	?	-6.3%	-24%	3%	-11%	-6%
Cc1ccc(OCc2cc(=O)n3ccsc3n2)c(NC(=O)c2ccco2)c1	·	16%[46.1 µM]	-17%	1.0%	·	·	2%	·
Cc1ccc(CNC(=O)COc2ccc(S(=O)(=O)N3CCOCC3)cc2)cc1	0%[46.1 µM]	19%	-14%	·	-4%	·	·	-16%
CC(C)C(=O)Nc1nnc(CCN(CCc2nnc(NC(=O)C(C)C)s2)[N+](=O)[O-])s1	·	·	-13%	·	1%	4%	·	17%
Cc1ccc2nc(-c3cccnc3SCC(=O)N3c4ccccc4CC3C)[nH]c2c1 (stereo not drawn)	?	-7%	?	-4.6%	-7%	25%	?	1%
COc1ccc(CN2CCN(C(=O)Cn3c(=O)oc4cc(Cl)ccc43)CC2)c(OC)c1OC	·	·	-26%	·	0%	-4%	·	24%
O=c1c(Cl)c(N2CCOCC2)cnn1-c1ncc(C(F)(F)F)cc1Cl	5%	24%[46.1 µM]	-10%	·	0%	·	·	15%
CCCN(CCC)C(=O)c1cc(-c2ccc3c(c2)OCO3)nc2ccccc12	-22%[46.1 µM]	?	-26%	-21%	-12%	-7%	1%	-6%
C[n+]1cc(-c2ccccc2)oc1-c1ccccc1	6%[46.1 µM]	21%	50%[activator]	·	19%	12%	·	12%
O=C1c2cccc3cccc(c23)C(=O)N1CC1CCCO1 (stereo not drawn)	15%[46.1 µM]	23%	17%	·	-7%	·	·	9%
CCN(CC)C(=O)C1CCCN(Cc2ccc3c(c2)OCO3)C1 (stereo not drawn)	2%	6%	1%	-4.6%	-3%	0%	-7%	-19%
CCc1nnc(NC(=O)CCN2C(=O)c3ccccc3S2(=O)=O)s1	6%	-8%	11%	4.2%	-10%	-2%	4%	-6%
Cc1cc(NC(=O)Cc2cn3ccsc3n2)n(-c2ccccc2)n1	3%	2%	-16%	3.6%	1%	-11%	0%	-8%
CCc1ccccc1N(CC)C(=O)C1CCN(c2ncnc3c2nc2n3CCCCC2)CC1	·	?	?	·	9%	-46%	·	6%
COc1cc(-c2nnc(SCC(=O)Oc3ccccc3)o2)cc(OC)c1OC	-14%[46.1 µM]	10%[46.1 µM]	14%	-2.8%	·	·	18%	·
COc1ccc(C(CNC(=O)c2ccc(C)cc2)N2CCOCC2)cc1 (stereo not drawn)	6%[46.1 µM]	-4%[46.1 µM]	-6%	-0.1%	·	·	11%	·
CCc1ccc(C(=O)N/N=C/c2ccncc2)s1	·	·	56%[activator]	·	-1%	-14%	·	5%
CCCCN1C(=O)C(=O)N(CC(=O)Nc2ccccc2C(=O)OCC)C1=O	?	-16%[46.1 µM]	-3%	·	2%	1%	·	-5%
CCCCNC(=O)NC1CCCC1	-1%	5%	-6%	0.6%	3%	-3%	0%	5%
CCc1cccc(CC)c1-n1c(-c2cccnc2)n[nH]c1=S	-2%[46.1 µM]	-8%	-7%	·	4%	2%	·	1%
COc1ccc(C2c3c(ccc4ccccc34)Oc3ncn4nc(CO/N=C/c5ccccc5)nc4c32)cc1 (stereo not drawn)	-1%	?	4%	5.3%	10%	8%	3.2µM*	0%
CCOc1ccc(C2C(C(=O)c3ccco3)=C(O)C(=O)N2CCCn2ccnc2)cc1OC (stereo not drawn)	1%[46.1 µM]	8%[46.1 µM]	-1%	·	-4%	2%	·	-11%
C/C(=N\NC(=O)CNc1cccc(C)c1)c1ccc(Br)s1	7%	-19%	9%	-11%	-15%	6%	-12%	5%
CCn1cc(C(=O)N[C@H](C(=O)NCCCO)C(C)C)c(=O)c2cc3c(cc21)OCO3	·	·	-6%	·	1%	-4%	·	-1%
Cc1ccc(NC(=O)CN2C(=O)/C(=C\c3cccs3)SC2=S)cc1	2%	?	-9%	-3.9%	11%	4%	5µM*	-2%
O=C(CNC(=O)c1ccc(S(=O)(=O)N2CCCC2)cc1)N/N=C/c1ccccc1Cl	20%	-5%	?	-1.6%	2%	-1%	9%	-16%
COC(=O)/C(=C/c1ccco1)NC(=O)c1ccco1	-13%	-1%	-16%	-5.0%	27%	14%	4%	-1%
COc1ccc(C(=O)C(OC(=O)c2ccc(C)c(NC(C)=O)c2)c2ccccc2)cc1 (stereo not drawn)	-1%	-23%	-5%	-6.0%	-14%	13%	?	21%

Screening data from PubChem BioAssay.
